# Assay outcomes (PubChem BioAssay)
# Resorufin fluor – compound fluoresces in the resorufin spectral region; Compound fluorescence, resorufin region 547/598 nm, buffer; active compounds read high; max dye-equivalent concentration, M; AID 588; hit rate 0.04% among 59,000; active = above 10 nM dye equivalent; inconclusive = 1 to 10 nM; inactive = 1 nM or less; a few of its hits are not listed in these tables; also: highest value over a series up to 38 µM
#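 Dye-equivalent concentration values derive from comparing each well's 547/598 nm fluorescence against resorufin standards included on every plate. Incubation was 15 min at room temperature in 100 mM Tris, pH 8.0.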
# TSHR agonist – TSH receptor (human) agonism; hit rate 0.48% among 73,000; AID 926; HEK293-CNG-TSHR cells (CNG channel as cAMP sensor), membrane potential dye, cAMP; Potency, µM (titrated, usually from 57.1 µM), for the others: at the highest dose activation, usual class: activators; active = well fitted activation curve of enough size with the parental cells flat; inconclusive = any curve in the parental cells; inactive = parental cells flat and receptor cells flat or falling; also: potency is read from the fitted curve at half-maximal effect; % of control where 0% means no effect; weak receptor curves with flat parental cells got no call and are not listed
# Target sequence (P16473 whole entry, looked up): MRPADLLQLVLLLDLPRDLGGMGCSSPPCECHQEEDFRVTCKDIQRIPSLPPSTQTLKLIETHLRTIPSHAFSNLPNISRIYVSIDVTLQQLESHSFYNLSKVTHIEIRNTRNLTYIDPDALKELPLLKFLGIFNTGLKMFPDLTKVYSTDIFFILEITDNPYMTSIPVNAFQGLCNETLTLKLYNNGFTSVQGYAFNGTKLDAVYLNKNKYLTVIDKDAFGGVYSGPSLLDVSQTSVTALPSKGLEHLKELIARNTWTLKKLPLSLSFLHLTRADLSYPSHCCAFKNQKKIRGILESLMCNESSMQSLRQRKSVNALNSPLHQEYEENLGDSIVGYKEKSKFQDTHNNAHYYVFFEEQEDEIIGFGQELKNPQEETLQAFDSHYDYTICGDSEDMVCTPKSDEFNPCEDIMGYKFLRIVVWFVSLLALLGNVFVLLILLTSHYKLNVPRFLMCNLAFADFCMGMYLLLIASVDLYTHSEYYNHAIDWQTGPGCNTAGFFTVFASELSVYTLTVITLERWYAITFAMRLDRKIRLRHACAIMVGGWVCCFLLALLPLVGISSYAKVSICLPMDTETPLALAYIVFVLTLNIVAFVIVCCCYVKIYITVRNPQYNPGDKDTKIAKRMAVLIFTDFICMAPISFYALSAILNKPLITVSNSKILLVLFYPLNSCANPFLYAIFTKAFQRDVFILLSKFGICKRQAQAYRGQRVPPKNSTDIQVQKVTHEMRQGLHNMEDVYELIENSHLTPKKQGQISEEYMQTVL
#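 HEK 293 cells stably expressing TSHR and a cAMP-gated CNG channel; parental CNG-only cells as counterscreen. Cells preloaded 60 min with membrane potential dye plus 100 uM RO 20-1724, then compound 30 min; fluorescence read at 590 nm.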
# A488 fluor – A488 region autofluorescence. compound autofluorescence, A488 spectral region, dye equivalency; active compounds read high. max dye equivalency, M. hit rate 0.1% among 59,000; active = above 10 nM dye equivalent; inconclusive = 1 to 10 nM; inactive = 1 nM or less; about half of its hits are not listed in these tables;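 also: highest value over a series up to 38 µM; compound alone in buffer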
#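 Readout is A488 dye-equivalent concentration, calibrated by a per-plate six-point Alexa 488 series. Compounds in 100 mM Tris buffer pH 8.0 were incubated 15 min at room temperature. Plates were imaged using 480 nm excitation/540 nm emission filters.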
# A647 autofl – A647 region autofluorescence. Compound fluorescence, A647 channel (570/671 nm), Tris buffer. max dye-equivalent concentration, M. 59,000 tested, under 10 active; active means above 1 µM dye equivalent; inconclusive means 0.1 to 1 µM; inactive means 0.1 µM or less;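 also: values scaled relative to a standard on each plate; highest value over a series up to 38 µM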
#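 Tris 100 mM pH 8.0; cpd + A647 stds pin-transferred; 15 min RT; CCD imager, ex 570/em 671. Output = A647-equivalent conc. per cpd conc.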
# AID923 – qHTS Assay for Allosteric/Competitive Inhibitors of Caspase-1: Spectroscopic Profiling in AFC Spectral Region; AID 923, 2007; hit rate 1.1% among 75,000; Potency, µM (titrated, usually from 57.5 µM), without a hit: at the top dose fluorescence increase, hits mostly activators; compound fluorescence, AFC spectral region (405/520 nm); almost no hit is shown here; active = well fitted activation curve with a large enough effect; inconclusive = small, poorly fitted or top-dose-only effect;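 also: potency is read from the fitted curve at half-maximal effect; 0% is about no effect; scaled to a free AFC standard on each plate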
#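 Baseline compound fluorescence (AFC region, 405 nm ex/520 nm em) taken from the intercept of kinetic reads with 50 nM caspase-1 and 5 uM Ac-WEHD-AFC; normalized to an on-plate AFC standard curve; compounds titrated up to 57 uM.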
# The depositor's hits bear a star; i = inactive; ? = inconclusive; / = no result given; [ ] = dose if it differs, or a comment. The list is partial, so the mix of outcomes need not match the whole.
SMILES,AID923,A647 autofl,Resorufin fluor,TSHR agonist,A488 fluor
Cc1csc(NC(=O)c2cccs2)n1,-0.7%,1e-09,i,-5%,i
COCCCNC(=O)Cn1ncc2ccsc2c1=O,0.5%,/,/,-4%,/
CCc1cc2c(N[C@@H](C)C(=O)O)ncnc2s1,1.3%,6.2e-09,i,7%,i
CCCn1c(-c2ccc(F)cc2)nc2c(NC3CC4CCC(C3)N4C)nc(C)nc21 (stereo not given),-2.6%,/,/,?,/
O=C(COC(=O)C12CC3CC(CC(O)(C3)C1)C2)Nc1ccccc1OC(F)F,-2.2%,4.4e-09,i,9%,i
COc1ccccc1C1/C(=C(/O)c2ccc(OC(C)C)cc2)C(=O)C(=O)N1c1cc(C)on1 (stereo not given),/,3e-08,i,/,i
CCOC(=O)c1nc(-c2ccc3c(c2)OCO3)[nH]c1C,-3.1%,/,/,6%,/
O=C1CCCc2nc(N3CCc4ccccc43)ncc21,-1.4%,5.1e-09,i,17%,i
COc1ccc(N(CC(=O)Nc2ccc(OC)c(Cl)c2)S(=O)(=O)c2c(C)noc2C)cc1,-0.2%,2.8e-08,i,/,i
O=c1c[n+](CCCC[n+]2cc(=O)o[nH]2)[nH]o1,0.5%[11.5 µM],4.7e-08,i,-4%[11.4 µM],i
O=C(c1ccco1)N1CCC2(CCCN(c3ccccc3)C2)CC1,2.0%,1e-09,i,-2%,i
Cc1ccc(N2CC(C(=O)NCCc3ccc(S(N)(=O)=O)cc3)CC2=O)cc1 (stereo not given),-1.5%,1.2e-08,i,-8%,i
O=C1[C@@H]2C(Cc3ccc(O)cc3)NC3(C(=O)Nc4ccc(F)cc43)[C@@H]2C(=O)N1c1ccccc1 (stereo not given in full),0.2%,2.2e-08,i,-9%,i
O=C(CN1C(=O)COc2ccccc21)Nc1ccc2c(c1)OCCO2,0.6%,5.9e-09,i,0%,i
CCCC(=O)Nc1ccc(N2CCN(C(=O)c3ccccc3C)CC2)cc1,0.3%,3.6e-08,i,-1%,i
COc1ccc(S(=O)(=O)N2CCC(C(=O)Nc3ccc(OC)c(OC)c3)CC2)cc1C,0.6%,2.2e-08,i,-14%,i
Cc1nnc(SCc2ccccc2)n1N,0.9%,2.9e-08,i,0%,i
N#CC1=C2SCC(O)(c3ccccc3)N2C(=O)CC1c1ccccc1 (stereo not given),/,8.5e-08,i,/,i
O=C(CSc1nn(-c2ccccc2)c(=S)s1)Nn1cnnc1,1.2%,1.3e-08,i,/,i
NC(=O)C[C@@H]1N[C@]2(C(=O)Nc3ccccc32)[C@@H]2C(=O)N(C3CCCCC3)C(=O)[C@H]12,0.6%,2.5e-08,i,11%,i
O=C1Nc2cc(C(=O)N3CCN(Cc4ccccc4)CC3)ccc2SC1N1CCOCC1 (stereo not given),0.3%,1.4e-08,i,?,i
O=C(O)c1cccc(SSc2cccc(C(=O)O)c2)c1,4.6%[11.5 µM],1e-09,i,-4%[11.4 µM],i
Cc1ccc(CCN2CC(C(=O)NCc3ccco3)CC2=O)cc1 (stereo not given),-0.3%,3.8e-09,i,0%,i
COc1ccc(-c2cc(O)cc(O)c2)cc1,-6.8%,1.5e-08,i,-27%,i
CCOc1ccc(-n2nnnc2SCC(=O)c2ccccc2)cc1,-0.5%,5e-08,i,?,i
CCC(C(=O)Nc1ncn[nH]1)(C(F)(F)F)C(F)(F)F,/,1e-09,i,/,i
Cc1oc(-c2cccs2)nc1CS(=O)CC(=O)NCCCOC(C)C (stereo not given),2.9%,9.1e-09,i,1%,i
COc1ccccc1OCC(=O)Nc1cccc(C(=O)N2CCOCC2)c1,-1.1%,1.6e-08,i,-9%,i
COc1ccc(Cc2nnc(SCC(=O)NCC3CCCO3)o2)cc1 (stereo not given),0.8%,9.6e-09,i,-5%,i
N#CCCn1c(=O)c(-c2cc(F)cc(F)c2)nc2cnc(Nc3ccccc3)nc21,4.1%,1.2e-08,i,?,i

# Three entries out of the list, arranged by length of the SMILES, ascending.
SMILES,AID923,A647 autofl,Resorufin fluor,TSHR agonist,A488 fluor
O=C(O)c1cccc(SSc2cccc(C(=O)O)c2)c1,4.6%[11.5 µM],1e-09,i,-4%[11.4 µM],i
O=C(COC(=O)C12CC3CC(CC(O)(C3)C1)C2)Nc1ccccc1OC(F)F,-2.2%,4.4e-09,i,9%,i
CCCn1c(-c2ccc(F)cc2)nc2c(NC3CC4CCC(C3)N4C)nc(C)nc21 (stereo not given),-2.6%,/,/,?,/

# Next section
SMILES,AID923,A647 autofl,Resorufin fluor,TSHR agonist,A488 fluor
CC(C)(C)C(=O)COC(=O)c1cccc(NC(=O)c2ccco2)c1,0.6%,1.8e-08,i,2%,i
Cc1ccc(C)c(N2CCN(S(=O)(=O)c3ccc4c(c3)CCC(=O)N4)CC2)c1,3.3%,7e-09,i,?,i
O=C(NCc1cccc(C(F)(F)F)c1)C1CCCN(c2ncccn2)C1 (stereo not given),-0.7%,1e-09,i,3%,i
CCOc1ccc2[nH]c(=O)c(CN(CCO)C(=O)CC)cc2c1,-1.6%,4.9e-08,i,1%,i
CCc1ccccc1NC(=O)CCc1nc(-c2ccc(C)cc2)no1,0.0%,2.5e-08,i,9%,i
Cc1ccc(N=Cc2cccc(O)c2O)c(C)c1,0.3%,/,/,-39%[inhibitor],/
C=CCn1c(-c2ccoc2)n[nH]c1=S,0.2%,1e-09,i,3%,i
COc1ccc(NC(=O)c2ccc3c(c2)OCO3)cc1Cl,-2.1%,1.7e-08,i,5%,i
O=C(c1cc(S(=O)(=O)N2CCOCC2)ccc1F)N1CCN(Cc2ccccc2)CC1,-0.1%,1e-09,i,-6%,i
Cc1ccc(NC(=O)c2ccc(OC(=O)c3ccco3)cc2)cc1,0.7%,1e-09,i,-7%,i
CC(=O)c1ccc(NC(=O)N[C@@H](Cc2ccccc2)C(=O)O)cc1,1.4%,3.9e-08,i,-1%,i
CC(=O)Oc1c(Cl)c(N2CCOCC2)c(OC(C)=O)c2ccccc12,0.5%,/,/,?,/
O=C1CCC(C(=O)N(c2ccccc2)C2(C(=O)NC3CCCCC3)CCCCC2)N1 (stereo not given),0.5%,1.6e-08,i,13%,i
CC(C)CC1NC(=O)N(CC(=O)N2CCN(S(=O)(=O)c3ccc4ccccc4c3)CC2)C1=O (stereo not given),-0.3%,3e-08,i,17%,i
CCOc1ccccc1NC(=O)CN(c1ccc(OC)cc1)S(=O)(=O)c1c(C)noc1C,-1.5%,1.4e-08,i,/,i
CCOC(=O)C(NC(C)=O)(Nc1ccc(S(=O)(=O)Nc2nccs2)cc1)C(F)(F)F (stereo not given),1.5%,1e-09,i,26%,i
Cc1nc(=O)c(-c2ccccc2)c(C)n1Cc1ccccc1,-0.6%,2.6e-08,i,-4%[11.4 µM],i
C=CCNc1nc(Nc2ccc(OC)cc2OC)nc(OCC)n1,3.9%,1.8e-09,i,/,i
O=C(CCCn1c(=O)[nH]c2ccccc2c1=O)N1CCN(c2ccccn2)CC1,-1.7%,/,/,-4%,/
O=C(O)CCc1ccc(-c2cccs2)n1NC(=O)c1ccc(Cl)cc1,0.5%,/,/,5%[11.4 µM],/
COc1ccccc1CN1CCC2(CCNCC2)CC1,2.7%,1e-08,i,12%,i
c1cncc(CNc2cc(-c3ccoc3)ncn2)c1,5.9%,1e-09,i,2%,i
NC(=Nc1ccccc1)NC(=O)c1nc(Cl)c(N)nc1N,-0.6%,1.1e-08,i,8%,i
COCCNC(=O)CN(C)S(=O)(=O)c1ccc(Br)cc1,1.5%,/,/,3%,/
CN1CCN(C(=O)c2cnn3c(C(F)(F)F)cc(-c4ccc5c(c4)OCO5)nc23)CC1,4.2%,1e-09,i,15%,i
CCOC(=O)c1ccc(S(=O)(=O)Nc2cc(C(C)(C)C)no2)cc1,-1.3%,1e-09,i,7%,i
O=C(CN1C(=O)COCC1=O)N1CCOCC1,0.1%,/,/,25%,/
Nc1nc(Nc2ccccc2)nc2c1ncn2[C@@H]1O[C@@H](CO)[C@H](O)[C@H]1O,0.5%,/,/,3%,/
CCOC(=O)N1CCC(NC(=O)C2CCCN(S(=O)(=O)c3cccnc3)C2)CC1 (stereo not given),-2.4%,/,/,-3%,/
O=C(CSc1cn(CCNC(=O)c2cccs2)c2ccccc12)NCC1CCCO1 (stereo not given),1.2%,/,/,?,/

# Record cards, from the list above. Order of screens: AID923	A647 autofl	Resorufin fluor	TSHR agonist	A488 fluor
# C=CCn1c(-c2ccoc2)n[nH]c1=S in the list: 0.2%	1e-09	i	3%	i
# O=C(NCc1cccc(C(F)(F)F)c1)C1CCCN(c2ncccn2)C1 (stereo not given) in the list: -0.7%	1e-09	i	3%	i

# (more compounds)
SMILES,AID923,A647 autofl,Resorufin fluor,TSHR agonist,A488 fluor
COc1ccc(-c2noc(CN(C(=O)c3c(-c4ccccc4Cl)noc3C)C(C)C)n2)cc1,0.1%,1e-09,i,14%,i
COc1ccc(C2CC(=O)c3cnc(NC(=O)c4cc(OC)cc(OC)c4)nc3C2)cc1 (stereo not given),2.7%,1e-09,i,?,i
C=CCOCC/C=C1/c2ccccc2C(OC)C1C (stereo not given),-1.6%[11.5 µM],/,/,5%[11.4 µM],/
COc1cc(C(=O)OCCN2CCOCC2)ccc1O,1.2%,1.5e-08,i,0%,i
CC1CCN(C(=O)CCc2nc3cc(S(=O)(=O)N(C)C)ccc3n2C)CC1,0.3%,5.1e-08,i,2%,i
COc1cccc(NC(=O)Cc2c(O)c3ccccc3[nH]c2=O)c1,-1.0%,1.1e-08,i,6%,i
Clc1ccccc1OCc1nc(-c2ccncc2)no1,-0.9%,2.2e-09,i,1%,i
O=C(Cn1c(=S)nc2ccccn21)N1CCc2ccccc2C1,1.1%,1e-09,i,7%,i
O=C(CNC(=O)c1ccco1)OCN1C(=O)c2ccccc2C1=O,0.8%,1e-09,i,1%,i
COC(=O)CNc1nc(C2CC2)nc2c1nnn2Cc1ccccc1Cl,0.1%,6.1e-08,i,12%,i
COc1cccc2cc(C(=O)OC3CCN(C)CC3)c(=O)oc12,3.8%,/,/,-2%,/
CSc1ccccc1NC(=O)c1ccoc1C,1.3%,3.3e-08,i,23%,i
Cc1ccc(CCNC(=O)C2CCCN(S(=O)(=O)c3c(C)noc3C)C2)cc1 (stereo not given),1.3%,1.8e-09,i,1%,i
CCCc1cc(=O)n2[nH]c(C)cc2n1,1.5%,4.1e-09,i,1%,i
NC(=O)c1ccc(-n2nnnc2SCc2ccc(F)cc2)cc1,-1.2%,3e-08,i,?,i
CCn1c(=O)cc(OCC(=O)N2CCCCCC2)c2ccccc21,1.9%,1e-09,i,0%[11.4 µM],i
CCn1c(-c2ccc(C(C)(C)C)cc2)n[nH]c1=S,2.2%,9.4e-09,i,16%,i
COc1ccc(NC(=O)N2CC3(CCN(C(=O)c4csnn4)CC3)C2)cc1,5.7%,2.5e-09,i,?,i
Cc1cc(C)nc(SCc2nnc(SCC(=O)NCc3ccco3)n2-c2ccccc2)n1,-2.5%,6.5e-08,i,5%,i
CCOC(=O)Cc1csc(NC(=O)C(C)(C)C)n1,1.8%,1.8e-08,i,1%,i
Cc1nc(N2CCC(C)CC2)c2c(C)c(C(=O)O)sc2n1,-0.2%,1e-09,i,3%,i
CC(NC(=O)COC(=O)CCNC(=O)c1ccco1)C12CC3CC(CC(C3)C1)C2 (stereo not given),-0.8%,1e-09,i,13%,i
O=C(O)CCn1ccnc1-c1ccccc1,-0.8%,1e-09,i,1%,i
CC(=O)N1[C@H](C)C=C[C@]1(Cc1ccccc1)C(=O)NCCc1c[nH]c2ccccc12,-0.2%,/,/,0%,/
CCOc1ccc(CN2CCC(C(=O)N3CCN(c4ccccc4F)CC3)CC2)cc1OC,-0.5%,3.6e-08,i,19%,i
